Sa RN4220 lethal: growth inhibition of S. aureus RN4220, primary screen, OD600. inhibition, % (concentration not given with the values). 16 h. actives 0.33% (n = 330,000). AID 1259311, 2017;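 active means z-score of -3 or lower and OD600 up to 0.18 on both plates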;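 further: plate controls were untreated cells for no effect and reference antibiotic for full effect; stock transfer was 100 nL into about 80 µL; one replicate is shown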
PrP UTR inh: inhibition of PrP 5' UTR reporter expression | cell-based PrP 5' UTR mRNA reporter, plate reader | inhibition, % (test concentration not listed) | actives 0.35% (n = 340,000);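 active means every replicate at 50% or more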;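 further: 0 = median of the neutral control wells; tested in H4 reporter cells; numbers are from one replicate; inactives centre near -14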
ugtP null kill: growth inhibition of ugtP-null S. aureus, primary screen, RN4220 ugtP deletion, OD600. AID 1259309, 2017. actives 0.54% (n = 330,000). growth inhibition, % (no concentration beside the values). 16 h; some inactives read as strong as hits;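 active means z-score under -3 and OD600 up to 0.15 on both plates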;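 further: plate controls were untreated wells for no effect and antibiotic for full effect; wells of about 80 µL received 100 nL stock; the first replicate is given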
Autofluor counter: flagged as autofluorescent in microsphere protease counterscreen; actives 3.1% (n = 360,000); fluorescence intensity (concentration not given with the values); compound autofluorescence counterscreen, microsphere flow cytometry; active compounds read high;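 active means at least 3 SD above the mean of all compounds, about 16000 in these data; inconclusive means too few beads counted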;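 further: 100 nL of 1 mM stock went into each well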
BJeLR lethal: MLPCN primary cell-based screen for lethality selective to Ras in HRASV12 cells; BJeLR (HRASV12) viability, CellTiter-Glo ATP luminescence, 48 h; reference of the scale not given here; inhibition, % (concentration not given with the values); actives 0.17% (n = 300,000); AID 1554, 2009;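 active means replicate mean above 50%; inconclusive means above 50% but judged a plate artefact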;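 further: 50 nL library stock added to about 25 µL; numbers are from one replicate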
Mtb hypoxia inh: PubChem AID 1159583; M. tuberculosis hypoxia-regulated fluorescent reporter, fluorescence; fluorescence inhibition, % (concentration not given with the values); actives 0.1% (n = 300,000);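 active means 35 to 45% if threefold the growth effect, above 45% if 1.5-fold the growth effect; inactive means the rest, general growth blockers included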;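 further: wells of about 50 µL received 100 nL stock; 0% = vehicle wells and 100% = reference inhibitor wells; whole bacteria with a GFP reporter of the hypoxia response; strong numbers were not always called active; many hits fall short of the cut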
Mtb hypoxia inh growth: recorded beside Mtb hypoxia inh, whose call it bears; growth inhibition, %; measured here: M. tuberculosis growth (absorbance);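 0% = vehicle and 100% = reference antibiotic; read after six days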
Starred values were filed as active, the others as inactive; ? = inconclusive; . = not tested or not shown.

SMILES | Sa RN4220 lethal | PrP UTR inh | ugtP null kill | Autofluor counter | BJeLR lethal | Mtb hypoxia inh | Mtb hypoxia inh growth
O=C(NCC(c1ccco1)N1CCc2ccccc21)c1cccc(F)c1 (stereo unspecified) | -2.7 | 19 | 4 | ? | 4 | 4 | -5
CCCN1CCN(C(=O)CN2C(=O)COc3ccc(S(=O)(=O)N(CC)CC)cc32)CC1 | 0.5 | 7 | -2 | 5571 | -1 | 2 | 15
COc1ccc(CCc2nnc(CCC(=O)N(C)Cc3ccncc3C)o2)cc1 | 2.0 | -40 | 2 | 2231 | -3 | -7 | 4
CC(=NNC(=O)CN1CCN(S(=O)(=O)c2ccc(C)cc2)CC1)c1cccnc1 | 6.6 | . | 9 | . | . | 15 | 9
O=C(Nc1ccc(C(=O)N2CCN(c3ccccc3F)CC2)cc1)C1=CSCCO1 | -1.0 | -14 | -7 | 5376 | -16 | -5 | -4
COC(=O)C1=C(c2ccc(C(C)=O)cc2)C[C@@H]2CC[C@H]1N2C(=O)NCC1CC1 | -6.8 | -7 | -5 | 4142 | . | 2 | 8
FC(F)Oc1ccc(C=Nn2c(Cc3ccc(Br)cc3)n[nH]c2=S)cc1 | 12 | . | -4 | . | . | 19 | 4
COc1ccc(OC)c(NC(=O)CN2C(=O)C3(OCCCO3)c3ccccc32)c1 | 1.9 | . | 0 | 11105 | 1 | 1 | 9
O=C(NCC1CCCO1)c1cc(-c2ccccc2)nc2ccccc12 (stereo unspecified) | 3.1 | -24 | 7 | ? | -9 | 14 | 8
CCN(C1CCCCC1)S(=O)(=O)c1cc2c3c(c1)CCN3C(=O)CC2 | 7.7 | -11 | 7 | . | 4 | 4 | -2
CCN(C(=O)CCc1nnc2ccc(N3CCC4(CC3)OCCO4)nn12)c1ccccc1 | 2.3 | -22 | 5 | 6475 | 16 | 17 | 6
CC(=O)Nc1ccccc1C(=O)N1CCN(c2cccc(C)c2C)CC1 | 0.4 | -12 | 1 | 4400 | 10 | 16 | 0
CC(C)N(C(=O)[C@H]1C[C@H](CC(=O)NCCN2CCOCC2)C(=O)N2CCc3c([nH]c4cc(-c5ccco5)ccc34)[C@]12C)C(C)C | -0.2 | -4 | 8 | 3665 | . | 2 | 0
O=C(c1cc(-c2cccc(O)c2)on1)N1CCCCCC1 | 4.8 | -65 | 9 | 4954 | -5 | 15 | 11
O=C(c1ccc(CNS(=O)(=O)c2ccc(Br)cc2)cc1)N1CCCCCC1 | 3.1 | 8 | -4 | 4362 | -3 | 9 | -4
CC(=NNC(=O)c1sccc1-n1cccc1)c1cccs1 | 0.2 | . | 5 | . | . | 10 | 1
NC(=O)c1c(NC(=O)C2CCCO2)sc2c1CCCC2 (stereo unspecified) | 4.0 | -27 | 3 | 2217 | -14 | 7 | 6
C/C(C=NNC(=O)c1ccccn1)=C/c1ccccc1 | 3.3 | . | 13 | . | . | -10 | 10
CS(=O)(=O)N(CC(=O)NCCSCc1ccccc1)c1ccccc1 | 4.4 | -6 | 7 | 4324 | 5 | 7 | 4
COc1ccc(C2=NOC(C(=O)NCCCN3CCOCC3)C2)cc1 (stereo unspecified) | 4.7 | -6 | 0 | 11591 | 13 | 4 | -3
O=C(Nc1ccccc1Cl)ON=Cc1ccc(F)cc1 | 4.7 | . | 1 | . | . | -10 | 4
NCCCC[C@@H](C(=O)N1CCNCC1)n1cc(CCC(=O)O)nn1 | . | -6 | . | 3151 | -8 | . | .
CCOc1ccc(-c2nnn(CC(=O)NCc3ccco3)n2)cc1OCC | -14 | -15 | 0 | 2996 | -2 | 16 | 5
CC(NC(=O)[C@H](C)NC(=O)C1CC(=O)N(c2ccc3c(c2)OCO3)C1)c1ccccc1 (stereo partly specified) | 1.2 | -20 | 9 | 4860 | 12 | -1 | -8
O=C(Nc1ccccc1)OCc1cnc(Cl)s1 | . | 13 | . | 4418 | 3 | . | .
CC(C)(C)OC(=O)CNC(=O)c1[nH]cnc1C(=O)NC1CCNCC1 | 8.7 | -7 | 0 | 3985 | . | 22 | 8
Cc1ccc(S(=O)(=O)Nc2ccc3c(c2)n(C)c(=O)n3C)cc1 | -1.8 | -9 | 3 | 6660 | 9 | -3 | -3
CC1CC(C)CN(c2oc(Cc3ccccc3)nc2C#N)C1 (stereo unspecified) | 9.1 | -19 | -4 | 1983 | 1 | 1 | 4
C=CCn1c(SCC(=O)NCC)nc2sc3c(c2c1=O)CCC3 | 3.8 | -24 | 4 | 4025 | 1 | -1 | -4
C=CCn1c(Cn2nnc3ccccc32)nnc1SCC(=O)N/N=C/c1cc(Br)cc(OC)c1O | . | -8 | . | 4512 | 12 | . | .
COC(=O)c1c(NC(=O)COc2ccc(Cl)cc2Cl)sc2c1CC(C)(C)NC2(C)C | -9.9 | -19 | -22 | 4273 | 15 | 9 | 20
O=c1[nH]c(SCC2CCCCO2)nc2ccccc12 (stereo unspecified) | 4.5 | -24 | -7 | 21391* | 5 | 4 | -2
CC1=CC2=NC(=O)/C(=C/c3coc4ccccc4c3=O)C(=N)N2O1 | . | -8 | . | 4449 | -6 | . | .
Cn1c(=O)cc(NCCc2ccccc2)[nH]c1=O | 3.4 | 0 | -15 | 3420 | 7 | 7 | 10
N#Cc1ccc(NCCc2ccccn2)c([N+](=O)[O-])c1 | 3.8 | 2 | 6 | 4446 | 1 | 5 | 8
Cc1cc(C(=O)COC(=O)c2ccc(Cl)c(S(N)(=O)=O)c2)c(C)n1CC1CCCO1 (stereo unspecified) | 0.2 | -15 | -4 | ? | -3 | 1 | -10
CCCCN(CCCC)CCCNC(=O)C12CN(Cc3ccccc3)CC1C(c1cccc([N+](=O)[O-])c1)=NO2 (stereo unspecified) | -1.6 | -15 | -16 | 3821 | 4 | 6 | 2
COC(=O)Cn1c2ccccc2c2nc(C)sc21 | 8.2 | -22 | 4 | 9713 | 4 | 3 | 8
COc1cc2ccc3c(CCN(C)C)cc(OC)c(OC)c3c2cc1OC | -3.0 | -4 | -2 | . | 0 | 1 | -11
COc1cc(/C=C/C(=O)OCC(=O)Nc2cc(S(=O)(=O)N3CCOCC3)ccc2Cl)cc(OC)c1OC | 3.7 | -7 | 1 | 3989 | . | 2 | 15
CCC(NC(=O)NCc1cccnc1)(C(F)(F)F)C(F)(F)F | 4.6 | -2 | 1 | 2852 | -5 | . | .
CC(=O)c1c(C(C)=O)c(C)n(-c2nc(-c3ccccc3)c(C)s2)c1C | -13 | -9 | -1 | 3315 | -2 | 16 | 4
O=C(NC1c2ccccc2-c2ccccc21)c1ccco1 | 4.5 | -18 | 14 | 3976 | 5 | . | .
Cc1cccc(OCC(=O)NCC(=O)N/N=C/c2ccc([N+](=O)[O-])cc2)c1 | . | -5 | . | 2786 | -4 | . | .
C=CCn1c(SCC(=O)Nc2cc(C)on2)nnc1-c1ccccc1F | 0.0 | -14 | 2 | 3639 | . | -14 | 7
COc1ccc(N2CCN(C3CCCCC3NS(=O)(=O)c3ccc(Cl)cc3)CC2)cc1 (stereo unspecified) | . | -19 | . | 4484 | 14 | . | .
O=c1[nH]nc(-c2cccs2)c2ccccc12 | 4.0 | -27 | 2 | 2778 | 1 | 12 | 9
CCOC(=O)C1=C(C)NC2=C(C(=O)CC(c3cccs3)C2)C1c1cccs1 (stereo unspecified) | 2.0 | -13 | 3 | 4041 | 7 | . | .
COc1ccc(Nc2ccc([N+](=O)[O-])c3nonc23)c(OC)c1 | 12 | -13 | 12 | 3040 | 10 | 11 | 5
COc1cc(OC)cc(C(=O)Oc2ccc(/C=N/Nc3nc4ccccc4s3)cc2OC)c1 | . | -78 | . | 10551 | 20 | . | .
CCOC(=O)c1c(NC(=O)C2CC2)sc(C)c1CC | 12 | -2 | 7 | 2396 | 4 | 5 | 3
CCc1ccc(NC(=O)C2CC(=O)N(C(C)C)C2)cc1 (stereo unspecified) | 3.8 | -23 | -1 | 3692 | 7 | 11 | 10
C=C(Br)Cn1c(CCCC)nc2ccccc21 | 5.3 | -5 | 5 | 3410 | 1 | 9 | 9
Cc1ccc(N=C2N=C(N)c3ccccc32)cc1C | 1.8 | -10 | -5 | 5996 | -1 | 1 | 10
CCN(CC)c1ccc(NC(=O)CN2CCN(CC(=O)Nc3ccccc3OC)CC2)cc1 | 5.7 | 1 | 4 | 3907 | -4 | -1 | 8
COP(C)(=O)c1c(C)nn(-c2ccccc2)c1C (stereo unspecified) | 2.5 | -26 | -4 | 3208 | 7 | 5 | 5
COc1ccc(-c2[nH]ncc2/C=N/NC(=O)c2ccc(Br)cc2)c(OC)c1 | . | -38 | . | 8070 | 1 | . | .
Cc1ccc(NC(=O)NC2CCN(S(=O)(=O)c3ccc(F)cc3)CC2)cc1 | 3.5 | 2 | 4 | 7680 | -5 | 4 | 2
CCOC(=O)c1cc(C)nc(N2CCCCC2)c1C#N | 1.7 | -22 | 7 | 4461 | -2 | 0 | 11
CC(=O)N1c2ccc(S(=O)(=O)N3CCCC(C(=O)Nc4ccc(F)cc4)C3)cc2CC1C (stereo unspecified) | -1.6 | -2 | 7 | 4409 | 14 | 9 | 8
Cc1ccc(OCC(=O)NCc2n[nH]c(=O)c3ccccc23)cc1 | 3.8 | -26 | 2 | ? | -4 | 8 | 6
COC(=O)NN=Cc1ccc([N+](=O)[O-])o1 | 5.1 | . | 15 | . | . | -11 | -6

In another format: entries from further up
Molecule,Sa RN4220 lethal,PrP UTR inh,ugtP null kill,Autofluor counter,BJeLR lethal,Mtb hypoxia inh,Mtb hypoxia inh growth
COc1ccc(N2CCN(C3CCCCC3NS(=O)(=O)c3ccc(Cl)cc3)CC2)cc1 (stereo unspecified),.,-19,.,4484,14,.,.
O=c1[nH]nc(-c2cccs2)c2ccccc12,4.0,-27,2,2778,1,12,9
CCOC(=O)C1=C(C)NC2=C(C(=O)CC(c3cccs3)C2)C1c1cccs1 (stereo unspecified),2.0,-13,3,4041,7,.,.
COc1ccc(Nc2ccc([N+](=O)[O-])c3nonc23)c(OC)c1,12,-13,12,3040,10,11,5
COc1cc(OC)cc(C(=O)Oc2ccc(/C=N/Nc3nc4ccccc4s3)cc2OC)c1,.,-78,.,10551,20,.,.
CCOC(=O)c1c(NC(=O)C2CC2)sc(C)c1CC,12,-2,7,2396,4,5,3
CCc1ccc(NC(=O)C2CC(=O)N(C(C)C)C2)cc1 (stereo unspecified),3.8,-23,-1,3692,7,11,10
C=C(Br)Cn1c(CCCC)nc2ccccc21,5.3,-5,5,3410,1,9,9
Cc1ccc(N=C2N=C(N)c3ccccc32)cc1C,1.8,-10,-5,5996,-1,1,10
CCN(CC)c1ccc(NC(=O)CN2CCN(CC(=O)Nc3ccccc3OC)CC2)cc1,5.7,1,4,3907,-4,-1,8
COP(C)(=O)c1c(C)nn(-c2ccccc2)c1C (stereo unspecified),2.5,-26,-4,3208,7,5,5
COc1ccc(-c2[nH]ncc2/C=N/NC(=O)c2ccc(Br)cc2)c(OC)c1,.,-38,.,8070,1,.,.
Cc1ccc(NC(=O)NC2CCN(S(=O)(=O)c3ccc(F)cc3)CC2)cc1,3.5,2,4,7680,-5,4,2
CCOC(=O)c1cc(C)nc(N2CCCCC2)c1C#N,1.7,-22,7,4461,-2,0,11
